PMP22 txn prim: PMP22 gene transcription modulation | 2% of 43,000 active | AID 1508649 | S16 Pmp22-F2sN Schwann cells (luciferase reporters placed in the Pmp22 gene), FLuc/NLuc coincidence luminescence, 24 h | Potency, µM (highest dose often 57.5 µM), without a hit: at the highest dose activity change, negative = inhibition, most hits filed as inhibitors; active = clear falling dose curves in both reporters; inconclusive = both reporters move, but less clearly or upward; inactive = either reporter flat; the % is the NLuc reporter signal; note: % is set by controls: 0 for no effect and ±100 for the full control effect; some results filed as inactive show a strong effect at the top dose
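Luminescent read-out of sequential FLuc and NLuc signals from a reporter embedded in the Pmp22 3' UTR of S16 Schwann cells, taken after 24 h compound exposure at 37C; compounds reducing both signals score as inhibitors of expression.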
HTT promoter inh: inhibitors of huntingtin promoter activity. HEK293 HTT promoter firefly luciferase reporter (activity 0% = vehicle and -100% = no light), 24 h. Potency, µM (series often up to 57.5 µM), for inactives: at the highest dose activity change, negative = inhibition, usual class: inhibitors. 0.93% of 48,000 active; active = well fitted inhibition curve with a large enough effect; inconclusive = small, poorly fitted or top-dose-only effect; inactive = no such curve, though single readings can be large or run the other way; note: nearly all actives have a fitted effect of over 50% in size
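HEK293 luciferase promoter-reporter cells (2,500/well) plated 24 h, then compounds added at up to 57.5 uM final for 24 h at 37 °C. Firefly luminescence by Dual-Glo, normalized to vehicle (0%) and zero RLU (-100%).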
Active calls of the source: *; ? = inconclusive; . = not tested or not shown. Potency is the fitted concentration of half-maximal effect.

SMILES	PMP22 txn prim	HTT promoter inh
CCC1CN(S(=O)(=O)c2cc(-c3cc(C)no3)ccc2OC)c2cc(Cl)ccc2O1 (stereo unspecified)	-24.0%	?
Cc1ccc(N2CC(NC(=O)Cc3ccc(F)cc3)CC2=O)cc1C (stereo unspecified)	?	-24.3%
CCOC(=O)c1ccc(NC(=O)c2ccc(=O)n(Cc3cccc(C)c3)c2)cc1	?	?
CCOc1ccc(/C=C/C(=O)Nc2sc3c(c2C(=O)OC)CCC3)cc1	-0.5%	-15.1%
COc1ccccc1NC(=O)C(C)Sc1nnc2ccc3ccccc3n12 (stereo unspecified)	7.6%	-6.7%
CCOc1ccc(C(=O)N(Cc2ccc(C(C)C)cc2)Cc2ccco2)cc1	-48.4%	-21.0%
COc1cc(NC(=O)C(CC(C)C)NS(=O)(=O)c2ccc3c(c2)CCCC(=O)N3)cc(OC)c1 (stereo unspecified)	?	-10.9%
COc1ccc(OC)c(NC(=O)Cn2c(=O)n(Cc3ccccc3)c(=O)c3ccccc32)c1	-4.2%	?
CCc1ccc(NC(=O)C2CCCN(S(=O)(=O)c3ccc(F)cc3)C2)cc1 (stereo unspecified)	5.6%	?
Cc1ccc(-n2nc(C)c3c(C(F)(F)F)cc(-c4cccnc4)nc32)cc1C	0.9%	-10.9%
Cc1cccc(-c2nc(CSCC(=O)NCCc3ccc(Cl)cc3)c(C)o2)c1	11.9%	?
Cc1cccc(-c2nc3scc(CCNS(=O)(=O)c4ccc(Oc5ccccc5)cc4)n3n2)c1	?	?
COc1ccccc1NC(=O)Cn1c(=O)n(Cc2ccccc2)c(=O)c2ccccc21	-10.2%	?
CC(C)c1ccc(NC(=O)c2cc3c(=O)oc4ccccc4c3s2)cc1	-5.7%	-3.6%
COc1ccc(OC)c(CCNC(=O)CCCn2c(=O)c3cccn3c3ccccc32)c1	-26.3%	-4.0%
COc1cc(OC)c(NS(=O)(=O)c2c(C(=O)N3CCCCCC3)c(C)n(C)c2C)cc1Cl	-7.8%	-1.5%
Cc1cccc(-n2ncc3c(Nc4ccc(C)c(Cl)c4)ncnc32)c1	?	11.9%
CCc1cccc(NC(=O)Cn2c(=O)n(CCC(=O)NCc3ccccc3Cl)c(=O)c3sccc32)c1	?	-5.9%
CN(C(=O)CSc1nc2ccccc2n1Cc1cccc(C(F)(F)F)c1)c1ccccc1	?	0.0%
COc1ccc(Nc2ncnc3c2cnn3-c2cc(Cl)ccc2C)cc1OC	?	-29.9%
COc1cc(OC)c(NC(c2nnc(-c3ccccc3)o2)c2ccc(F)cc2Cl)cc1Cl (stereo unspecified)	?	?
COc1ccc(OC)c(-c2nc(C(N)=O)c3c(n2)n(-c2ccc4c(c2)OCO4)c(=O)n3C)c1	-37.8%	-13.2%
Cc1ccccc1C(=O)N(Cc1ccc(N(C)C)cc1)CC1CCCO1 (stereo unspecified)	22.3%	-0.5%
O=C(Nc1ccc2oc(-c3cccc(Cl)c3Cl)nc2c1)c1cccc(Br)c1	?	-14.1%
Cc1ccc(C(=O)COC(=O)C(Cc2c[nH]c3ccccc23)NC(=O)c2ccc(C(C)(C)C)cc2)cc1 (stereo unspecified)	-35.7%	-11.7%

Taken from the results shown (three entries):
SMILES	PMP22 txn prim	HTT promoter inh
CCC1CN(S(=O)(=O)c2cc(-c3cc(C)no3)ccc2OC)c2cc(Cl)ccc2O1 (stereo unspecified)	-24.0%	?
Cc1ccc(N2CC(NC(=O)Cc3ccc(F)cc3)CC2=O)cc1C (stereo unspecified)	?	-24.3%
CCOC(=O)c1ccc(NC(=O)c2ccc(=O)n(Cc3cccc(C)c3)c2)cc1	?	?

Continuation.
SMILES	PMP22 txn prim	HTT promoter inh
Cc1ccc(CSc2nc(=O)c3c(n2C)NC(=O)CC3c2ccc(OC(C)C)cc2)cc1 (stereo unspecified)	6.5%	-19.8%
CC1=C(c2ccc(C(C)C)cc2)S(=O)(=O)N=C1N1CCC(C(=O)NCc2ccccc2)CC1	?	-30.0%
CCCCCCCCCCCCCCCC(=O)OC[C@@H](NC(=O)C(Cl)Cl)[C@H](O)c1ccc([N+](=O)[O-])cc1	.	4.2%
CC(C)(C)C1CCc2nc(NC(=O)c3cccc(Cl)c3)sc2C1 (stereo unspecified)	-9.3%	0.355µM*
CCN(CCCNC(=O)c1cc2c(Cl)nc3ccccc3c2s1)Cc1ccccc1	?	-17.2%
CCOc1ccccc1NC(=O)c1ccc2c(Cl)c3c(nc2c1)CCCC3	?	0.8%
Cc1ccc2c(c1)c1c(n2CCc2ccc(C)nc2)CCN(C)C1	.	6.4%
O=S(=O)(c1ccc(Cl)cc1Cl)n1ccnc1	-6.5%	-1.9%
CCOc1ccc(/C=C(\C#N)C(=O)Nc2sc3c(c2C(=O)OC)CCC3)cc1OC	-5.2%	-2.5%
COc1ccccc1CNc1ncnc2onc(-c3ccc(F)cc3)c12	?	-18.0%
Cc1ccc(NC(=O)Cn2nc(C)c3nn(-c4ccc(Cl)cc4)c(C)c3c2=O)cc1F	-17.3%	?
CCOCCCn1c(SCC(=O)Nc2cc(C)ccc2C)nc2c(oc3ccccc32)c1=O	-1.7%	-6.5%
COc1ccc(C(=O)Nc2nc3n(n2)C(c2ccc(F)cc2)C=C(c2ccc(Cl)cc2)N3)cc1 (stereo unspecified)	?	?
CCc1ccc(S(=O)(=O)c2nnn3c2nc(N2CCN(CC)CC2)c2sccc23)cc1	?	2.1%
CC1CN(C(=O)N2CCC(C(=O)NCc3ccco3)CC2)c2ccccc2O1 (stereo unspecified)	6.2%	-0.7%
Cc1ccnc(NS(=O)(=O)c2ccc(NC(=O)c3cc(=O)c4ccc(C)c(C)c4o3)cc2)n1	3.1%	-11.1%
O=c1c2oc3ccccc3c2n(Cc2ccccc2F)c(=O)n1Cc1ccco1	31.7%	-12.2%
COc1ccc(CCNc2nc3c(c(=O)n(C)c(=O)n3C)n2Cc2ccc(F)cc2)cc1OC	10µM*	?
O=C(COc1ccccc1)NCC(c1cccs1)S(=O)(=O)c1ccc(Cl)cc1 (stereo unspecified)	1.6%	-31.5%
Cc1ccc(NC(=O)Cn2c(=O)n(-c3ccccc3)c(=O)c3ccc(C(=O)NCc4ccc5c(c4)OCO5)cc32)cc1	?	-22.4%
Cc1ccc2c(c1)CC(C)N2S(=O)(=O)c1nnc(NC(=O)CC(C)C)s1 (stereo unspecified)	-0.2%	-23.8%
CCOC(=O)N1CCc2c(sc3c2c(=O)n(-c2ccc(CC)cc2)c(=O)n3Cc2cccc(Cl)c2)C1	12.5%	-6.8%
CCOC(=O)[C@H](CCc1ccccc1)N[C@@H](C)C(=O)N1CCCC1C(=O)O (stereo partly specified)	.	8.4%
CC(C)(C)OC(=O)N1CCC(c2c(C(=O)N3CCCCC3)cnn2-c2ccc(Cl)cc2)CC1	-6.3%	-8.6%
Cn1c(C(=O)Nc2cccc(C(F)(F)F)c2)cc2c(=O)n3ccccc3nc21	-5.1%	-4.2%

Arranged by heavy-atom count (smallest number first): part of the list above.
SMILES	PMP22 txn prim	HTT promoter inh
COc1ccccc1CNc1ncnc2onc(-c3ccc(F)cc3)c12	?	-18.0%
CCOc1ccc(/C=C(\C#N)C(=O)Nc2sc3c(c2C(=O)OC)CCC3)cc1OC	-5.2%	-2.5%
COc1cc(OC)c(NS(=O)(=O)c2c(C(=O)N3CCCCCC3)c(C)n(C)c2C)cc1Cl	-7.8%	-1.5%
CC1=C(c2ccc(C(C)C)cc2)S(=O)(=O)N=C1N1CCC(C(=O)NCc2ccccc2)CC1	?	-30.0%

Next section.
SMILES	PMP22 txn prim	HTT promoter inh
Cc1ccc(NC(=O)Cn2c(=O)n(Cc3nc(-c4ccccc4)no3)c(=O)c3ccccc32)cc1C	?	-22.8%
COc1ccc(NC(=O)c2cn(CC(C)C)c(=O)c3cc(OC)c(OC)cc23)cc1Cl	-10.4%	-22.7%
O=C(Nc1nnc(S(=O)(=O)N2CCOCC2)s1)c1ccc(F)cc1	19.6%	4.9%
Cc1ccc(CCNC(=O)c2cc(-c3ccc(Cl)cc3)n[nH]2)cc1	-2.7%	3.7%
COc1ccc(CCNC(=O)CCCn2c(=O)c3cccn3c3cccnc32)cc1OC	-15.0%	7.6%
COc1ccc(-c2nc(SCc3cc(=O)c4cc(C)ccc4[nH]3)n[nH]2)cc1	?	?
NC(=O)CSc1nc2c(oc3ccccc32)c(=O)n1-c1ccccc1F	-7.7%	-18.9%
O=C(CCC1N=C2c3ccccc3N=C(SCc3ccc(Cl)cc3)N2C1=O)NCc1cccs1 (stereo unspecified)	-7.9%	-10.5%
COc1ccc(OCc2nc(-c3ccc(-n4cccc4)cc3)no2)cc1	-21.6%	5.0%
Cc1cccc(C(=O)Nc2ccc(OCc3cc(=O)n4c5c(sc4n3)CCCC5)cc2)c1	-1.4%	-20.3%
CC(C)(C)CC(C)(C)c1ccc(OCC(=O)Nc2ccc(S(=O)(=O)Nc3ncccn3)cc2)cc1	?	-15.9%
CCCCNC(=O)CCc1c(C)nc2c(c(C)nn2-c2ccccc2)c1C	-2.5%	-7.0%
COc1ccc(-c2nc(-c3ccccc3)c(-c3ccccc3)[nH]2)cc1Br	5.2%	?
COc1ccc2c(c1)c(=O)c(C(=O)c1ccccc1)cn2CC(=O)Nc1ccc2c(c1)OCCO2	24.7%	-14.2%
Clc1ccccc1-c1nnc(SCc2nc(-c3ccccc3)no2)n1-c1ccccc1	?	?
O=S(=O)(c1ccccc1)c1nc(-c2ccccc2Cl)oc1N1CCCCCC1	?	-28.1%
Cc1ccc(Cl)cc1NC(=O)CSc1ccc(C(=O)O)cn1	-18.4%	-5.7%
COc1ccc(CCNc2nc3ccc(Cl)cc3n3cnnc23)cc1OC	-57.4%	-9.4%
Cc1ccc2c(=O)cc(C(=O)Nc3nc4ccc(Cl)cc4s3)oc2c1C	-6.2%	-7.7%
Cc1ccc(NC(=O)c2cnc(N3CCCCC3)c3ccccc23)c(C)c1	-25.2%	1.2%
COc1ccc(CC(=O)NCCS(=O)(=O)N2CCN(c3ccc(F)cc3)CC2)cc1OC	-13.9%	?
Cc1oc(-c2ccccc2)nc1CCC(=O)c1ccc(CC2SC(=O)NC2=O)cc1 (stereo unspecified)	.	-13.3%
Cc1oc2ncn(CC(C)C)c(=O)c2c1C(=O)NCCCN1CCCCC1	-5.2%	-16.8%
CC(C)c1ccc(NC(=O)CN(C)S(=O)(=O)c2ccc3c(c2)c(=O)n(C)c(=O)n3C)cc1	?	-19.2%
COc1ccc(OC)c(CNC(=O)CCCn2ccc3cc(S(=O)(=O)N4CCCC4)ccc32)c1	?	?
SMILES	PMP22 txn prim	HTT promoter inh
CCOc1ccc(CCNCc2c(C(=O)O)c(C)n(Cc3ccccc3F)c2C)cc1	6.0%	-12.4%
CCCn1c2ccccc2c2cnn(CC(=O)N3CCC(C(=O)OCC)CC3)c(=O)c21	-15.0%	-15.2%
COc1ccccc1Nc1nn2c(=O)c3ccc(C(=O)NC(C)c4ccccc4)cc3nc2s1 (stereo unspecified)	-14.7%	-15.1%
CC(=O)N1c2ccccc2CC1C(=O)N1CCN(c2cccc(Cl)c2)CC1 (stereo unspecified)	-16.3%	-14.7%
COc1ccc(Nc2ncc(C(=O)Nc3ccc(F)cc3F)c3ccccc23)cc1	?	-17.7%
CCc1cccc(C)c1NC(=O)c1cc(C)nc2c1c(C)nn2-c1cccc(Cl)c1C	1.9%	-8.7%
O=c1c2ccccc2n(Cc2c(F)cccc2Cl)c(=O)n1CCc1ccccc1	-18.5%	-6.8%
O=C(CCN1C(=O)c2ccccc2Sc2ncccc21)Nc1ccc(F)cc1	-8.4%	-5.7%
Cc1ccccc1NC(=O)CSc1nc(-c2ccc(F)cc2)nc2c1Cc1ccccc1O2	0.7%	1.0%
CCOC(=O)c1cnc2ccc(OCC)cc2c1NCCc1ccc(OC)c(OC)c1	?	-16.9%
COc1cc(CNc2ccc3c(c2)ncn3C(C)C)cc(OC)c1OC	?	?
Cc1ccccc1CNC(=O)c1c(C)oc2c1C1=NCCN1C=N2	-16.0%	9.6%
Clc1ccc(Nc2c(-c3ccccc3Cl)nc3ccc(Cl)cn23)cc1	?	?
Cc1ccc(NC(=O)C2CCCN2S(=O)(=O)c2ccc3c(c2)n(C)c(=O)c(=O)n3C)cc1 (stereo unspecified)	7.4%	-13.6%
COc1ccc2c(c1)-c1nc(NC(=O)c3cc(OC)c(OC)c(OC)c3)sc1CC2	?	?
COc1ccc(C(=O)Nc2cc(C)c(O)c(-c3nc4ccccc4s3)c2)cc1OC	12.4%	-15.1%
COc1ccc(NC(=O)C(=O)NCc2ccco2)c(OC)c1	0.9%	?
C[C@@H](NCCCc1cccc(C(F)(F)F)c1)c1cccc2ccccc12	.	?
CN(C)c1ccc(CNC(=O)c2ccccc2NC(=O)c2nsc3ccccc23)cc1	?	21.1%
CC(C)(C)OC(=O)N1CCC(c2nnc(SCc3ccccc3Cl)o2)CC1	-24.6%	-32.3%
Cc1c(Cl)cccc1NC(=O)c1ccc(NC(=O)N2CCSc3ncccc32)cc1	-20.0%	-2.8%
Cc1nc(-c2ccc(S(=O)(=O)Nc3ccc(Cl)c(C(F)(F)F)c3)cc2)co1	-30.0%	-19.5%
CCN(CC)c1nn2c(=O)c(C(=O)NCCc3ccc(C)cc3)cnc2s1	?	-2.6%
CCC(=O)NCc1nc2ccccc2n1Cc1ccccc1	-2.6%	-7.4%
CCN(CC)S(=O)(=O)c1ccc2oc(C(=O)Nc3cc(C)ccc3OC)c(C)c2c1	2.8%	-8.6%
Cc1ccc(OCC(=O)Nc2ccc3nc(SCC(=O)N4CCc5ccccc54)sc3c2)cc1	2.38µM*	-9.8%
